CSC inhib – blocks cancer stem cells; cancer stem cell-like cells viability, luminescence; inhibition, % at 7.5 µM; hit rate 1.1% among 300,000; AID 2717;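 active = mean at 75% or more and at least half the replicates too; inconclusive = mean and replicates disagree; tested in HMLE shEcad cells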;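 also: 0% = median of negative and 100% = median of positive control wells; the first replicate is given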
Yeast UUG start – alters start codon recognition fidelity in yeast | S. cerevisiae UUG-firefly luciferase reporter, luminescence/redox ratio | activity score, % at 18.7 µM | hit rate 0.13% among 350,000 | AID 602363;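 active = replicate mean at a twofold rise or more, about +100% in these data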;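 also: firefly luciferase made from a UUG start codon reports start codon fidelity; reporter light over untreated wells divided by growth signal over untreated wells; some hits fall short of that in this replicate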
eIF4H FP inh – inhibitors of RNA binding by human eIF4H. eIF4H fluorescence polarization binding assay. inhibition, % at 35 µM. hit rate 0.94% among 290,000. AID 2012;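 active = 50% or more with normal probe brightness, or confirmed in later tests; inconclusive = above 50% with abnormal brightness, or retests that disagree; inactive = below 50% or failed in later tests; about a fifth of its hits are not listed in these tables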;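 also: calls also rest on retests at 20 µM and on dose response follow-up; 0% = protein and probe with vehicle and 100% = probe without protein; strong numbers were not always called active; many hits fall short of the cut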
MT1-MMP act inh – blocks activation of human MT1-MMP | AID 651647 | hit rate 0.061% among 360,000 | GFP/RFP ratio change, % at 20 µM | P50281 | HT1080 RFP-PRO-GFP cells, GFP/RFP ratio fluorescence, overnight; percent of plate control window, DMSO zero;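 active = GFP/RFP ratio change of at least 30% with cell ATP level not reduced by more than half and red fluorescence within 50% of control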; also: strong numbers were not always called active
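Assay system: RFP-PRO-GFP reporter HT1080 cells; read-out basis: GFP/RFP fluorescence ratio; benchmarks: DMSO wells and RFP-L50D-GFP cells; doses: 20 µM single dose, 1% DMSO; schedule: overnight cell settling, then overnight compound exposure, 37 °C, 5% CO2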
Rce1 inhib – yeast Ras-converting enzyme inhibition | Q03530 | yeast membranes, quenched prenylated peptide cleavage fluorescence | calls only | hit rate 0.27% among 290,000;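 active = fall in fluorescence gain of 50% or more versus controls, with final raw signal at or below 3038400; inconclusive = same 50% fall but final raw signal above 3038400; inactive = fall in fluorescence gain under 50%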;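 also: plate controls were neutral control wells for no effect and wells lacking membranes for full effect; tested at 10 µM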
PABP FP inh – blocks human PABP binding to poly(A) RNA. P11940. fluorescence polarization. inhibition, % at 35 µM. hit rate 1% among 290,000. AID 2014;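 active = 50% or more with normal probe brightness, or confirmed in later tests; inconclusive = above 50% with abnormal brightness, or retests that disagree; inactive = below 50% or failed in later tests; about a fifth of its hits are not listed in these tables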;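 also: calls also rest on retests at 20 µM and on dose response follow-up; controls were probe without protein and protein plus probe with vehicle; some compounds called inactive have numbers as strong as hits; many hits fall short of the cut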
Target sequence (P11940 whole entry, looked up): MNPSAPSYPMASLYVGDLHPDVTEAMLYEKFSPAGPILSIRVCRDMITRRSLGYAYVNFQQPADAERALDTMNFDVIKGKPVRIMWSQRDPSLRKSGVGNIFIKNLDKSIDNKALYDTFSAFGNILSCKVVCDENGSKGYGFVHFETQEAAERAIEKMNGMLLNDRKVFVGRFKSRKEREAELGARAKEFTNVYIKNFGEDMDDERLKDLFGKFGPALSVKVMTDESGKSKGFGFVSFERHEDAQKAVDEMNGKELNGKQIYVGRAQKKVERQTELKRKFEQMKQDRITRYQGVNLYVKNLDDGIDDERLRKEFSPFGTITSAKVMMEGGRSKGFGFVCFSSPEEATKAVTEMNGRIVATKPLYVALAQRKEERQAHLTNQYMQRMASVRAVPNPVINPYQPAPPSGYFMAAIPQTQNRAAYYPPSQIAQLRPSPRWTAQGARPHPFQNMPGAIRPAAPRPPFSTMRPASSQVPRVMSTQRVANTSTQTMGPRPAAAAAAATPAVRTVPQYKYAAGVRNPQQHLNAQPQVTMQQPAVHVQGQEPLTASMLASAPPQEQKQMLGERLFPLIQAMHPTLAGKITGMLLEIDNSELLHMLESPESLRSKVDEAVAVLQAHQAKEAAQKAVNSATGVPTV
HIV Env fusion – inhibitors of HIV Env-mediated cell fusion; HeLa-JRFL Env/CEM21 cell fusion, luciferase; inhibition, % at 12.3 µM; hit rate 1.1% among 360,000; AID 651610;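 active = mean replicate inhibition score of at least 50 and every replicate individually at or above 50; inconclusive = only one of the two criteria met; inactive = mean below 50 and not all replicates reaching 50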;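 also: 0% = plate neutral controls and 100% = maraviroc near 300 nM; one replicate is shown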
eIF4H FP inh retest – also measured in eIF4H FP inh; calls as there; inhibition, %; compound at 20 µM; confirmation average;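 mean of two retest wells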
PABP FP inh retest – also measured in PABP FP inh; calls as there; inhibition, %; compound at 20 µM; confirmation repeats;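 mean of two retest wells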
MT1-MMP act inh RFP – also measured in MT1-MMP act inh; calls as there; RFP signal change, %; measured here: RFP expression control read;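 0 = vehicle wells; hits needed this value within 50% of zero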
Active calls of the source: *; i = inactive; ? = inconclusive; . = no result given; & = joins results of further samples. A portion of the library; count on the stated rates, not on these rows.

The first 3 compounds (preview)
SMILES	CSC inhib	Yeast UUG start	eIF4H FP inh	MT1-MMP act inh	MT1-MMP act inh RFP	Rce1 inhib	PABP FP inh	HIV Env fusion	others
COC(=O)c1ccc(=O)c2nc3/c(=C/O)c(O)cc(=O)c3[nH]c12	7	-16	85*	5	-7	.	100*	.
Cc1nc(-c2ccc(F)cc2)c(CC(=O)Nc2cccc(S(=O)(=O)N3CCOCC3)c2)s1	.	17	.	1	1	i	.	-294
COc1cccc(NC(=O)CN(C)C(=O)/C=C/c2cn(Cc3ccccc3)nc2-c2cccnc2)c1	-14	.	.	0	-3	i	.	5

Main list, from the start:
SMILES	CSC inhib	Yeast UUG start	eIF4H FP inh	MT1-MMP act inh	MT1-MMP act inh RFP	Rce1 inhib	PABP FP inh	HIV Env fusion	others
COC(=O)c1ccc(=O)c2nc3/c(=C/O)c(O)cc(=O)c3[nH]c12	7	-16	85*	5	-7	.	100*	.
Cc1nc(-c2ccc(F)cc2)c(CC(=O)Nc2cccc(S(=O)(=O)N3CCOCC3)c2)s1	.	17	.	1	1	i	.	-294
COc1cccc(NC(=O)CN(C)C(=O)/C=C/c2cn(Cc3ccccc3)nc2-c2cccnc2)c1	-14	.	.	0	-3	i	.	5
CCN1CCCC1CNC(=O)Cn1nc(C)n2c(cc3cc(F)ccc32)c1=O (stereo unspecified)	0	-6	.	1	3	i	.	-44
Nc1nnc(SCCCC(=O)c2ccccc2)s1	16	.	-3	9	6	i	-8	-6
Cc1nn(C)cc1S(=O)(=O)Nc1ccc2c(c1)OCCO2	3	.	-4	-1	-2	i	7	-16
Cc1ccc(C(=O)NC(=S)Nc2cccc3nsnc23)cc1	-1	-15	1	-1	3	i	-5	.
COc1ccc(NC(=O)CCl)cn1	0	.	?	.	.	i	?	.
CCN(CC)C(=O)c1sc(NC(=O)c2ccc(OC)c([N+](=O)[O-])c2)c(C#N)c1C	10	.	10	.	.	i	5	.
COC(=O)c1cc(S(=O)(=O)NCCN2CCOCC2)cn1C	-17	10	-10	3	11	i	-1	3
O=C(CCN1C(=O)c2ccccc2C1=O)N1CCC(c2ccccc2)C1 (stereo unspecified)	3	-8	-5	-2	2	i	-3	-74
Cc1ccc(CN2CCC[C@]3(N[C@H](c4ccc(C(F)(F)F)cc4)[C@@H]4C(=O)N(Cc5ccccc5)C(=O)[C@@H]43)C2=O)cc1	.	-15	.	0	-9	.	.	-23
Cn1ccc2c(-c3cccc(C=O)c3)cc3c(c21)C1CCC3O1 (stereo unspecified)	.	0	.	7	4	.	.	17
Cc1cc(C2=NNC(=NC3CC3)SC2)c(C)n1-c1c(C)n(C)n(-c2ccccc2)c1=O	.	.	1	-3	1	.	19	-5
CC1(C(=O)NS(=O)(=O)Cc2ccccc2C(F)(F)F)CCN1C(=O)c1ccco1 (stereo unspecified)	.	-18	.	5	10	.	.	-11
CCc1c(C)sc(NC(=O)c2cccs2)c1C#N	5	.	79	-7	1	i	2	.	eIF4H FP inh retest=11;PABP FP inh retest=24
O=C(CSc1nc2cc(Cl)ccc2o1)c1cccs1	11	.	-5	6	6	i	8	.
O=C(OCC(CO)OC(CO)n1ccc(=O)[nH]c1=O)c1ccccc1 (stereo unspecified)	-10	8	-9	2	-2	i	-2	-25
COc1ccc(NC(=O)CN(c2ccc(C(C)C)cc2)S(=O)(=O)c2c(C)noc2C)cc1OC	66	-14	-3	-2	4	i	-16	1
C=CC[C@@H](CC(=O)N[C@@H](CO)Cc1ccccc1)C(=O)N[C@H](COC(=O)[C@@H](CC=C)CC(=O)OC(C)(C)C)Cc1ccccc1	-2	8	.	-2	0	.	.	-7
CCCCC(CC)CNC(=O)C1CCCN(S(=O)(=O)c2cnc[nH]2)C1 (stereo unspecified)	-11	1	3	-2	-1	i	-6	-2
Cc1cc(NC(=O)CSc2nc3c(c(=O)n2-c2ccc(Br)cc2)SCC3)no1	-11	-17	-10	1	2	.	10	-10
O=C(NC(=O)N1CCCc2ccccc21)c1ccccc1	-14	.	-2	5	6	i	2	-21
COCCN1C(=O)/C(=C/c2cc3c(cc2Br)OCO3)NC1=S	-15	.	0	-8	-2	i	-3	2
COc1cc2oc(-c3ccc(O)cc3)cc(=O)c2c(OC)c1O	.	-11	-2	-2	-2	i	16	-17
CCn1c(SCC(=O)Nc2ccccc2Br)nnc1-c1cnccn1	-18	-11	-15	3	0	i	-5	1
Cc1nc2sccn2c(=O)c1Br	1	.	4	3	4	i	15	-31
O=C(Nc1ccc(Br)cc1F)C1CCCN(S(=O)(=O)c2cnc[nH]2)C1 (stereo unspecified)	-12	-18	6	1	-1	i	1	8
COC(=O)c1cc(C(=O)c2ccc(Cl)cc2)n2c(=O)/c(=C\N(C)C)sc12	43	.	-8	-3	-4	i	19	22
O=C(c1ccccc1)N1CCCC(C(=O)N2CCCCC2)C1 (stereo unspecified)	-5	-5	-6	1	-4	i	-3	-2
Cc1ccc(S(=O)(=O)N2CCN(Cc3ccco3)CC2)c(C)c1	4	-14	-5	-3	-4	i	14	30
Cc1ccc(CNC(=O)CS(=O)Cc2nc(-c3cccs3)oc2C)cc1 (stereo unspecified)	0	9	5	.	.	i	11	5
Cc1ccc(NC(=O)CN2C(=O)C3C4C=CC(C4)C3C2=O)cc1 (stereo unspecified)	-8	.	1	-1	-2	i	-4	-5
O=C(/C=C/c1ccccc1)NCCN1CCOCC1	-9	.	4	-6	6	i	-5	0
CCOC(=O)c1nn(-c2ccccc2C)c2nc(-c3ccc(Cl)cc3)c(C#N)c(=O)n12	-5	.	-1	0	-5	i	5	.
CCC1=NN(C(=O)c2ccc(Br)cc2)C(O)(c2ccc(C)cc2)C1 (stereo unspecified)	.	.	-8	1	-3	i	4	-9
C=CC[C@@H](CC(=O)NCCO)C(=O)N[C@@H](COC(=O)[C@@H](CC=C)Cc1ccc(F)cc1)Cc1ccccc1	.	5	.	-3	-3	.	.	41
COc1ccc(-c2noc([C@@H]3O[C@H](CO)[C@H](O)[C@H](O)[C@H]3O)n2)cc1OC	.	-6	.	0	8	.	.	-12
CS(=O)(=O)N(Cc1ccccc1)c1ccccc1C(=O)O	-2	-5	4	1	0	i	2	.
O=C(Cc1ccc(Br)cc1)NCCN1CCOCC1	-12	.	-4	1	3	i	-8	-46
CCOC(=O)COc1cccc2c(=O)n(CC(=O)NCc3ccc(F)cc3)ccc12	63	-14	8	.	.	i	2	-17
COC(=O)c1cc(S(=O)(=O)NCC2CCN(Cc3cc(C)ccc3C)CC2)c[nH]1	8	2	7	5	-1	i	-2	0
CCOc1ccc(C(CC(=O)O)NC(=O)C23CC4CC(CC(C4)C2)C3)cc1OC (stereo unspecified)	3	.	-5	-1	2	i	?	10
CC(Sc1nccn1C)C(=O)Nc1ccc(C(N)=O)cc1 (stereo unspecified)	-2	-5	.	2	1	i	.	5
CCc1ccc(NC(=O)[C@H](C)NC(=O)C2CCN(C(=O)[C@@H](N)CC(C)C)CC2)cc1	-24	4	-5	1	2	i	16	15
COc1ccccc1CN1CCNC(=O)C1CC(=O)NCCCn1cccn1 (stereo unspecified)	-7	.	1	-3	1	i	-6	-7
Cc1cccc(NS(=O)(=O)c2cc(C(=O)NCc3ccccn3)ccc2C)c1	-9	-28	-4	-4	-2	i	-10	32
Cc1ccc(S(=O)(=O)NC(C(=O)N2CCOCCOCCOCCOCC2)C(C)C)cc1 (stereo unspecified)	1	1	-4	3	5	i	1	2
COc1ccccc1-c1nnc(SCC(=O)N2CCOCC2)o1	-5	-24	5	-3	6	i	0	-31
O=C(C1CCCCC1)N1CCC(n2nnc3ccccc32)CC1	-6	-2	-11	5	6	i	-8	11
The results go on:
SMILES	CSC inhib	Yeast UUG start	eIF4H FP inh	MT1-MMP act inh	MT1-MMP act inh RFP	Rce1 inhib	PABP FP inh	HIV Env fusion	others
O=C(NNC(=O)c1csc(-c2ccccc2)n1)c1ccccc1	.	-20&-9	.	5	6	.	.	0
COc1ccc(/C=N/NC(=O)CNc2ccc(Br)cc2)c(C(=O)O)c1OC	7	-20	-10	1	2	i	4	-6
Cn1c(CC(=O)NCCO)c(Sc2ccccc2)c2ccccc21	-10	7	2	4	0	i	2	-8
CCCS(=O)(=O)N1CCN(Cc2ccncc2)CC1	-10	-18	-4	-4	1	i	-2	.
Cc1cc(NC(=O)CSc2nc3cc(Cl)ccc3o2)no1	.	-14	0	1	3	i	2	-13
O=C1CNC(=O)N1c1ccc(Cl)cc1	-12	-8	-4	3	2	i	-2	2
Cc1cccc(N(Cc2cc3ccccc3[nH]c2=O)C(=O)c2ccco2)c1C	-14	-11	-6	3	-1	i	-8	.
CC(=O)NCCNC(=O)C1Cc2c(-c3ccccc3Oc3ccccc3)ccnc2O1 (stereo unspecified)	.	-20	.	1	-1	.	.	9
CCc1ccccc1NS(=O)(=O)c1ccc2c(c1)C(C)(C)C(=O)N2C	.	8	2	-1	-1	i	14	1
Cc1c(NC(=O)OCCNC(=O)Nc2ccccc2)sc(=S)n1C	.	-32	-3	2	4	i	-6	.
CC(C)(C)CC(=O)NCCc1csc(-c2ccccc2)n1	-10	.	5	0	-4	i	5	15
COc1ccc(/C=C(\NC(=O)c2cccs2)C(=O)NN)cc1OC	0	31	4	-9	-3	i	1	-344
Cc1ccc2c(c1)SC1=NC(c3ccccc3)(C(F)(F)F)NC(=O)N12 (stereo unspecified)	0	.	5	.	.	i	4	.
CSc1nnc(SCC2=NNC(=O)SC2)s1	6	.	1	2	7	i	6	-133
O=C(CSc1ncnc2c1oc1ccccc12)Nc1ccc2c(c1)OCCO2	10	-8	.	0	0	i	.	18
O=C(NCc1cccnc1)c1ccccc1Br	0	-9	-1	5	6	i	-2	-36
CCOC(=O)N1CCC(NC(=O)CSCc2nc(-c3ccc(OCC)cc3)oc2C)CC1	-3	.	0	7	-6	i	6	4
CC(=O)NC(Cc1ccc(F)c(F)c1)C(=O)NC1CCN(C(=O)c2ccc(C)cc2)CC1 (stereo unspecified)	1	.	-14	2	4	i	2	-4
Cc1ccc(NC(=O)c2cc(C)no2)cc1	-4	-24	6	0	3	i	8	-10
O=C(NCCNCCO)C1(C(F)(F)F)C/C(=C\Cc2ccccc2)CCCO1 (stereo unspecified)	-10	10	.	1	3	i	.	8
CC1(C)CC(N=C2C([N+](=O)[O-])=CC=C3C2=NC2(CCCCC2)N3O)CC(C)(C)N1	38	20	10	2	1	.	16	8
CCOc1ccc(NC(=S)NCc2ccc3[nH]c(C)cc3c2)cc1	1	-21	9	2	-3	i	2	15
CC(C)(C)NC(=O)CN(C(=O)CCC(=O)Nc1nccs1)c1ccc2c(c1)OCCO2	.	-18	7	3	1	i	12	-2
COc1ccc(S(=O)(=O)N(C)c2ccc(C(=O)NCc3ccccn3)cc2)cc1OC	3	-23	-10	-3	1	i	3	-11
COc1ccccc1N(C)c1cc2c(c3c1ccn3C)C1CCC2C1 (stereo unspecified)	.	-11	.	-1	-3	.	.	21
CC(C)C(OC(=O)c1cccs1)C(=O)NCc1ccccc1 (stereo unspecified)	-9	.	-18	-2	2	i	14	9
O=C(c1ccc(Cl)c(S(=O)(=O)N2CCCCC2)c1)N1CCCCCC1	-16	6	-5	3	-8	i	-1	19
Cc1cccc(C)c1NC(=O)CNC(=O)C(C)N1CCCCC1 (stereo unspecified)	.	-2	.	-9	-2	.	.	-18
COc1ccc(/C=N/NC(=O)c2ccco2)cc1Cn1nc(C)cc1C	-11	.	13	-9	-4	i	-13	-7
